Mtb H37Rv = M. tuberculosis H37Rv growth inhibitors, H37Rv strain (AID 1626) | inhibition, % at 10 µM; hits with a dose series show IC50 in µM | M. tuberculosis H37Rv growth inhibition; higher % means a stronger effect | actives 0.95% (n = 220,000);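 active means confirmed in a dose series; inconclusive means inhibition above 80% but not taken into the dose series; inactive means below 80% or under 30% at every dose of the series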;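 further: bacteria incubated seven days before Alamar blue readout; 0% = bacteria only wells and 100% = bacteria with antibiotic wells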
Arbovirus anti = antivirals against arbovirus infection; inhibition, % at 10 µM; AID 1251; arbovirus infection cell-based antiviral screen; actives 0.37% (n = 200,000);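 active means inhibition from about 30%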;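 further: bluetongue infection of BSR cells; cell survival read as ATP light after 72 h; 0% = infected wells without compound and 100% = uninfected wells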
Mtb betalactam = beta-lactam sensitization of Mtb H37Rv. M. tuberculosis H37Rv growth with meropenem, percent inhibition; hits of this screen are not shown here. inhibition, % at 25 µM. actives 0.27% (n = 330,000). AID 434955;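 active means about 74% or more and at least 40 points above the plate without the antibiotic, then above 30% in a dose series; inconclusive means first-round hits that could not be retested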;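 further: growth measured after seven days incubation then overnight dye step; 0% = bacteria only wells and 100% = bacteria with antibiotic; twin plates without the antibiotic show which effects depend on it; some results filed as inactive read as strong as hits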
RecA intein inh = blocks M. tuberculosis RecA intein splicing; P9WHJ3; cell-free RecA intein splicing, fluorescence; inhibition, %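 (about 9 µM by stock and volumes)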; actives 0.75% (n = 290,000); in the data active means inhibition above about 30%; inconclusive means no clear call, values can overlap the other calls;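 further: 0% = vehicle wells and 100% = reference inhibitor control wells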
Target sequence (P9WHJ3 whole entry, looked up): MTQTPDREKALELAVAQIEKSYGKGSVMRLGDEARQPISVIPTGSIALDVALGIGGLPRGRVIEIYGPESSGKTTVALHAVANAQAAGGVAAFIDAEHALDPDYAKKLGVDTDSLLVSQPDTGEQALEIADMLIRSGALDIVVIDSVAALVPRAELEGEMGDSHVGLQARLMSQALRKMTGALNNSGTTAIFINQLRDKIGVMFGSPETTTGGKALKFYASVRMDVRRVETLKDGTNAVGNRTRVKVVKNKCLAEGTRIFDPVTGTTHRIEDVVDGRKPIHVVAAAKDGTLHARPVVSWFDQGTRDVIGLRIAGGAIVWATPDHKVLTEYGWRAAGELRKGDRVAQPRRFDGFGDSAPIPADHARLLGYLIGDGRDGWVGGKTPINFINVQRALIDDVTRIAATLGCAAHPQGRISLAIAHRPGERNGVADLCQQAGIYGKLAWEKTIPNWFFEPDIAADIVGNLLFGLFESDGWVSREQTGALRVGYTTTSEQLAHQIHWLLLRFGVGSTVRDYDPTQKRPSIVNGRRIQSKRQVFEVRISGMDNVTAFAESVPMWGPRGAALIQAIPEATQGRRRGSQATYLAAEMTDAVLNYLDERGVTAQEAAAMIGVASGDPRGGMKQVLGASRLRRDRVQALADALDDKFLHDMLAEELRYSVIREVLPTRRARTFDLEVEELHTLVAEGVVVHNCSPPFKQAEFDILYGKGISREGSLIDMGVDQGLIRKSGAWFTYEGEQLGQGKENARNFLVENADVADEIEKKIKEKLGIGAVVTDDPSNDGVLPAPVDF
YopH PTP inh = blocks Yersinia enterocolitica YopH tyrosine phosphatase | fluorescence Ex485/Em525 | inhibition, %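 (about 10 µM by stock and volumes)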 | actives 0.16% (n = 140,000) | AID 898;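 active means inhibition of 50% or more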;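 further: controls were vehicle for no effect and minimum signal wells for full effect; inactives centre near -20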
Arbovirus anti repeat = also measured in Arbovirus anti; calls as there; inhibition, %; measured here: 10K subset replicate screen; many hits read low in the repeat;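 first of two repeat runs on a subset; 0% = infected and 100% = uninfected wells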
The depositor's hits bear a star; ? = inconclusive; nt = no result given. These rows are one share of the data. The share of hits here may be higher or lower than overall.

The opening seven compounds, ahead of the listing:
SMILES | Mtb H37Rv | Arbovirus anti | Mtb betalactam | RecA intein inh | YopH PTP inh | others
CCCC(=O)N1CCCC(C(=O)c2cccc(OC(C)C)c2)C1 (stereo not drawn) | nt | nt | -10 | 0.8 | nt
C=C(C)C1Cc2cc3ccc(=O)oc3cc2O1 (stereo not drawn) | 11% | -3 | 0 | 1.4 | -18
C/C(=N\NC(=O)c1ccc(O)cc1)c1cc2ccccc2o1 | 3% | 1 | 7 | -4.0 | nt
COCCNC(=O)c1ccccc1NS(=O)(=O)c1ccc(Br)s1 | 1% | -4 | -5 | -0.7 | -26
O=c1c2ccccc2nc(/C=C/c2ccc([N+](=O)[O-])cc2)n1CCCO | 3% | -6 | 8 | -1.8 | -17
O=C(c1cc2c(s1)CCC2)N1C(=O)c2ccccc2S1(=O)=O | -6% | 11 | -2 | 2.9 | -6
NS(=O)(=O)c1cccc(NC(=O)CC(NC(=O)c2ccccc2Cl)c2ccccc2)c1 (stereo not drawn) | nt | nt | -9 | 0.4 | nt

The whole of this part, from the start:
SMILES | Mtb H37Rv | Arbovirus anti | Mtb betalactam | RecA intein inh | YopH PTP inh | others
CCCC(=O)N1CCCC(C(=O)c2cccc(OC(C)C)c2)C1 (stereo not drawn) | nt | nt | -10 | 0.8 | nt
C=C(C)C1Cc2cc3ccc(=O)oc3cc2O1 (stereo not drawn) | 11% | -3 | 0 | 1.4 | -18
C/C(=N\NC(=O)c1ccc(O)cc1)c1cc2ccccc2o1 | 3% | 1 | 7 | -4.0 | nt
COCCNC(=O)c1ccccc1NS(=O)(=O)c1ccc(Br)s1 | 1% | -4 | -5 | -0.7 | -26
O=c1c2ccccc2nc(/C=C/c2ccc([N+](=O)[O-])cc2)n1CCCO | 3% | -6 | 8 | -1.8 | -17
O=C(c1cc2c(s1)CCC2)N1C(=O)c2ccccc2S1(=O)=O | -6% | 11 | -2 | 2.9 | -6
NS(=O)(=O)c1cccc(NC(=O)CC(NC(=O)c2ccccc2Cl)c2ccccc2)c1 (stereo not drawn) | nt | nt | -9 | 0.4 | nt
O=C(c1ccco1)N1CCN(CC(O)COc2ccc3oc4ccccc4c3c2)CC1 (stereo not drawn) | 39% | -6 | 70 | 0.7 | -39
O=C(Cc1ccc(Cl)cc1)NCCc1cnc[nH]1 | nt | nt | 5 | 1.0 | nt
CCCCCn1c(N2CCCC2)nc2c1c(=O)n(C)c(=O)n2C | nt | nt | -1 | 0.9 | nt
C1CCc2nnc(-c3nnc4n3CCCCC4)n2CC1 | -5% | 7 | -4 | -2.3 | 18
CCOC(=O)C1=C(N)n2c(s/c(=C\c3cccs3)c2=O)=C(C(=O)OCC)C1c1cccs1 (stereo not drawn) | -8% | -15 | 0 | 2.4 | -6
CC(=O)C1=C(O)C(=O)N(c2ccc(Br)cn2)C1c1ccc(Br)cc1 (stereo not drawn) | 3% | nt | -8 | 2.6 | nt
O=C(NCCCN1CCOCC1)c1cc2c([nH]c3ccccc32)c(-c2cccc(Br)c2)n1 | nt | nt | 96 | 7.5 | nt
CC(=O)c1ccc(-n2c(CCC(=O)O)ccc2-c2ccc(Cl)cc2)cc1 | nt | nt | -1 | -0.4 | nt
Cc1ccccc1C(=O)NC(=S)Nc1ccc2[nH]c(=O)[nH]c2c1 | 0% | -5 | -2 | 3.5 | nt
CSc1ccccc1OCc1cc(C(=O)N(C)CCn2nc(C)cc2C)no1 | nt | nt | -2 | 2.3 | nt
COc1ccc(-c2cc(C(F)(F)F)nc(SCC(=O)Nc3ccc4c(c3)OCO4)n2)cc1OC | 1% | -10 | -2 | -1.3 | -21
CCCCN(CC)S(=O)(=O)c1ccc2c(c1)n(C)c(=O)c(=O)n2C | -9% | nt | -7 | -3.0 | nt
CC(C)Nc1nnc(Sc2ccc(Cl)cc2[N+](=O)[O-])s1 | nt | -4 | 5 | -0.2 | -21
COc1ccc2cc(C(=O)C3CCCN(C(=O)CCc4ccccn4)C3)ccc2c1 (stereo not drawn) | 1% | 13 | -1 | 2.6 | nt
COc1ccc2c(c1)c(CC(=O)Nc1ccccc1OC)c(C)n2C(=O)c1ccc(Cl)cc1 | 13% | 2 | 0 | 2.9 | -4
CCC1C(=O)N=C(SCC(=O)Nc2cccc3ccccc23)NC1=O (stereo not drawn) | -2% | 8 | 8 | 1.6 | -21
Cc1c(C#N)c(N)nc2c3c(sc12)NC(=O)CC3c1ccc(F)cc1 (stereo not drawn) | -2% | -9 | 8 | -0.6 | -31

Quoted from the results shown (five entries):
SMILES | Mtb H37Rv | Arbovirus anti | Mtb betalactam | RecA intein inh | YopH PTP inh | others
CC(=O)C1=C(O)C(=O)N(c2ccc(Br)cn2)C1c1ccc(Br)cc1 (stereo not drawn) | 3% | nt | -8 | 2.6 | nt
O=C(NCCCN1CCOCC1)c1cc2c([nH]c3ccccc32)c(-c2cccc(Br)c2)n1 | nt | nt | 96 | 7.5 | nt
CC(=O)c1ccc(-n2c(CCC(=O)O)ccc2-c2ccc(Cl)cc2)cc1 | nt | nt | -1 | -0.4 | nt
Cc1ccccc1C(=O)NC(=S)Nc1ccc2[nH]c(=O)[nH]c2c1 | 0% | -5 | -2 | 3.5 | nt
CSc1ccccc1OCc1cc(C(=O)N(C)CCn2nc(C)cc2C)no1 | nt | nt | -2 | 2.3 | nt

(more compounds)
SMILES | Mtb H37Rv | Arbovirus anti | Mtb betalactam | RecA intein inh | YopH PTP inh | others
O=[N+]([O-])c1ccc(N2CCN(C(=S)Nc3ccccc3)CC2)cc1 | -2% | -4 | 2 | -0.7 | nt
CCOC(=O)Cn1c(-c2ccccc2)nc2ccccc2c1=O | 46% | -2 | 99 | 8.1 | -15
CC(=O)c1ccc(NC(=O)Cn2nc(C)cc2C)cc1 | 4% | 0 | -5 | 0.4 | -27
Cc1[nH]c2ccccc2c1-c1nc2ccccc2[nH]1 | -2% | -5 | -12 | 1.6 | -19
CCCCC(c1nnnn1CCOC)N1CCN(C)CC1 (stereo not drawn) | -3% | 4 | -7 | -0.3 | -4
C=CCn1cnc2sc(C(=O)Nc3ccccc3OC)c(C)c2c1=O | -2% | -6 | -3 | -0.7 | nt
C/C(=N/Nc1ncc(Br)cn1)c1ccc(Br)cc1 | nt | nt | 1 | -1.1 | nt
O=C(NC1CC1)c1ccc(N2CCCCC2)c([N+](=O)[O-])c1 | nt | nt | 1 | 1.0 | nt
COc1ccc(CNC(=O)C(C)NCc2ccccc2Cl)cc1 (stereo not drawn) | nt | nt | -4 | -0.7 | nt
O=C(NCc1ccccn1)C1CCCN(S(=O)(=O)c2ccccc2)C1 (stereo not drawn) | -3% | 18 | -5 | -2.9 | -14
CCOC(=O)CCCNC(=O)CN1C(=O)NC2(CCCCCC2)C1=O | -4% | 12 | 5 | 0.2 | -52
C[C@H](NC(=O)c1ccc2c(c1)OCO2)c1nnc2ccccn12 | nt | nt | 7 | 1.6 | nt
CS(=O)(=O)Nc1ccc(C(=O)Nc2ccccc2C(=O)NCc2ccco2)cc1 | nt | nt | -24 | -1.4 | nt
CC1(C)CC(=O)C(C2=NC3(CCCCCC3)Cc3ccccc32)=C(O)C1 | -5% | nt | -5 | 0.2 | nt
Cc1ccccc1C(=O)Nc1nnc(SCC(=O)NC2CC2)s1 | nt | nt | 4 | -1.2 | nt
COC(=O)c1ccccc1C(=O)N1CCOCCOCCOCC1 | 7% | -3 | -5 | -0.7 | -45
Cc1ccc(Sc2ncccc2C(=O)NCC(c2ccc(F)cc2)N2CCOCC2)cc1C (stereo not drawn) | nt | nt | -1 | 1.4 | nt
C=CCn1c(SCC(=O)Nc2ccccc2F)nc2ccccc2c1=O | nt | nt | -21 | 1.5 | nt
CC(=O)c1cccc(NC(=O)N2C3CCC2CC(NC(=O)C2CC2)C3)c1 (stereo not drawn) | -3% | -1 | -1 | -2.1 | nt
NC(=O)Nc1ccc(C(=O)OCC(=O)N(Cc2ccccc2)C2CCS(=O)(=O)C2)cc1 (stereo not drawn) | 5% | 17 | 2 | -0.5 | nt
O=C(CSc1n[nH]c(=O)[nH]c1=O)Nc1ccccc1C(=O)c1ccccc1 | -2% | nt | 1 | -0.3 | nt
CC1=C(C#N)C(c2ccc3ncccc3c2)C(C#N)=C(C)N1 | -2% | 1 | 4 | 1.0 | -24
Cc1cc(C)c(NC(=O)CSc2nc3ncc(Cl)cc3[nH]2)c(C)c1 | nt | nt | -2 | -1.2 | nt
C/C(=N/N1CCN(c2ccccc2)CC1)c1cccc([N+](=O)[O-])c1 | 2% | -5 | -5 | -2.6 | nt
COc1ccc(C)cc1NC(=O)NCCC1=CCCCC1 | -6% | 2 | 6 | 1.8 | 3
CC1CN(c2ccc([N+](=O)[O-])c3cccnc23)CC(C)N1 (stereo not drawn) | -5% | -5 | 5 | 3.1 | -17
CCCCN(CCCC)CCNC(=O)CNC(=O)c1cccs1 | -9% | 3 | -12 | 0.4 | -28
O=C(O)C(C(=O)O)=C1C2CC3CC(C2)CC1C3 | nt | nt | 2 | 0.1 | nt
Cc1cc(C)nc(/N=C2\NC(=O)CC3C(=O)NCCN23)n1 (stereo not drawn) | -7% | -1 | -2 | 0.5 | -26
Cc1ccc(C(=O)SC2=NCCS2)cc1 | -4% | 0 | -4 | 1.5 | 33
COc1ccc(/C=C2\SC(=S)N(NC(=O)c3csc4c3CCCC4)C2=O)cc1 | -5% | 6 | 1 | -0.8 | -47
S=c1[nH]nc(-c2cccs2)n1/N=C/c1cn(-c2ccccc2)nc1-c1ccccc1 | 33% | nt | 2 | 1.6 | nt
CCCOc1ccc(C(=O)N(Cc2cccs2)C2CCS(=O)(=O)C2)cc1 (stereo not drawn) | nt | nt | -1 | 8.4 | nt
COc1ccc(-c2nc(C(=O)O)cs2)cc1OC | -4% | 3 | 0 | 4.9 | nt
CCCC(=O)NC(Oc1ccccc1Cl)C(Cl)(Cl)Cl (stereo not drawn) | -2% | -4 | 1 | 1.8 | -23
O=C(c1ccc(Cl)cc1)N1CCCCC(Cl)C1=O (stereo not drawn) | 2% | -6 | -2 | -2.4 | nt
Cc1nn(S(=O)(=O)c2ccc(C(C)C)cc2)c(C)c1S(=O)(=O)N1CCOCC1 | nt | nt | 1 | 0.9 | nt
Cc1ccc(N=Nc2c(O)n(CN3CCOCC3)c3ccccc23)cc1 | nt | 0 | 45 | 2.9 | -56
CN1CC2(Cc3c1ccc1ccccc31)C(=O)OC(C)(C)OC2=O | 0% | 1 | ? | -20 | -1
CCCN(CC(=O)Nc1ccccc1C)C(=O)c1ccc2ccccc2n1 | nt | nt | -1 | -0.6 | nt
COC(=O)C(=Nc1ccccc1)/C(C(=O)C(=O)N(C)c1ccccc1)=C(\O)c1ccc(Cl)cc1 | -9% | 3 | -1 | 0.9 | nt
COc1ccc(NC(=O)CSCC(=O)Nc2nnc(C3CC3)s2)cc1 | nt | nt | -2 | -0.5 | nt
CCOC(=O)C1(CCOc2ccccc2)CCN(Cc2cc(OC)cc(OC)c2)CC1 | nt | nt | 6 | 4.6 | nt
Cc1cc(NCc2ccccc2)nc(-c2ccccc2O)n1 | 10% | -7 | 99 | 14 | -19 | Arbovirus anti repeat=-14
Cc1ccc(CN2CCN(/N=C/C=C/c3ccccc3[N+](=O)[O-])CC2)cc1 | -12% | 3 | 2 | 2.4 | nt
COc1ccc(/C=N/Nc2nc(-c3cccc(S(=O)(=O)N4CCCC4)c3)cs2)cc1OC | 61% | -12 | 90 | 2.8 | -17
O=C(Nc1ccccc1)N1CCCC1c1cccs1 (stereo not drawn) | -2% | nt | -1 | 1.4 | nt
CC(=O)c1ccc(Oc2ccc(C(=O)c3ccc(C)c(C)c3)cc2[N+](=O)[O-])cc1 | 4% | -28 | 1 | 0.0 | -26
O=C(CSC1=NCCS1)N1CCCCCC1 | 5% | -1 | -13 | 1.2 | -31
CS(=O)c1ccccc1COC(=O)Nc1cccc(Cl)c1 (stereo not drawn) | -3% | -8 | 5 | 3.7 | 3
COc1ccccc1NC(=O)C(C)N(C)CCOc1ccccc1 (stereo not drawn) | nt | nt | 11 | 3.2 | nt
O=c1oc2cc(O[C@@H]3OC[C@@H](O)[C@H](O)[C@H]3O)ccc2c2ccccc12 | nt | nt | 1 | -0.6 | nt
CC(=O)Nc1ccc(S(=O)(=O)NCC(=O)OCC(=O)NC(=O)c2cccn2C)cc1 | -4% | nt | -3 | 0.8 | nt
O=C(CCc1ccccc1)NC(c1cccs1)c1cc(Cl)c2cccnc2c1O (stereo not drawn) | 30% | -28 | nt | 2.7 | nt
COc1ccccc1Nc1nnc(Cc2ccccc2)c(=O)[nH]1 | 6% | 2 | -4 | 1.7 | nt
COc1ccccc1C(=O)Nc1ccc2c3c(cccc13)CC2 | 3% | -7 | nt | -0.7 | -21
O=C(/C=C/c1cccc(F)c1)N1CCN(c2ncccn2)CC1 | -7% | 3 | -7 | -1.2 | nt

Bioassay records (PubChem BioAssay)
